Compound activity deposited in PubChem by ICCB-Longwood Screening Facility, Harvard Medical School.
GIV Gai3 FP – GIV-Galpha-i interaction inhibition. P08753. Galpha-i3/FITC-GIV peptide fluorescence polarization, 90 min; stronger effect = lower value; scaled: aluminum fluoride 0%, vehicle 100%. percent of control (FP), % (concentration not given with the values). 210,000 compounds, 0.42% hits. AID 1224905;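 active means replicate mean at 85% of control or lower, very high polarization wells dropped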;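 further: wells of about 15 µL received 100 nL stock; the first replicate is given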
Target sequence (P08753 whole entry, looked up): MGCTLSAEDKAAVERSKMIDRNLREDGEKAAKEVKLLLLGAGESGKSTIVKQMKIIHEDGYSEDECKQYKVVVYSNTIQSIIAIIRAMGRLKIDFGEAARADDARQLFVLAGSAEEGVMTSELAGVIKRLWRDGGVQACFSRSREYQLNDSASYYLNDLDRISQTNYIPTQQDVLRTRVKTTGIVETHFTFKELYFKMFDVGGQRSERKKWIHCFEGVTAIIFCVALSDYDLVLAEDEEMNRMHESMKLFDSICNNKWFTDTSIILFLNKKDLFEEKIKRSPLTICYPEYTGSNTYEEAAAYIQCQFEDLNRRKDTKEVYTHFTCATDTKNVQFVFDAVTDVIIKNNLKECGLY
Sa growth inh – blocks Staphylococcus aureus growth; S. aureus RN4220 growth, OD600, 20 h, 42 °C; stronger effect = lower value; AID 720641; 170,000 compounds, 0.53% hits; relative growth, % (no concentration beside the values);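 active means growth at 42 °C up to 50% and 20 or more points under that at 30 °C, or under 10% at both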;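 further: 300 nL library stock went into each well; scaled to the means of positive and negative controls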
HCMV UL50-53 inh – inhibitors of HCMV UL50-UL53 nuclear egress complex interaction. AID 1918969. HTRF UL50-UL53 interaction, normalized percent inhibition. 190,000 compounds, 0.15% hits. inhibition, % (no concentration beside the values);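 active means both replicates at 50% or more, plus weaker picks with an unusually low signal ratio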;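 further: stock transfer was 100 nL into about 20 µL; 0% = negative control wells and 100% = wells with untagged competitor protein; inactives centre near -12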
Sa growth inh second temp – also measured in Sa growth inh; calls as there; relative growth, %; measured here: growth at 30 °C;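 optical density after 20 h as mean of two plates; 100% = untreated growth and lower means inhibition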
* hit, by the source's call; x = no result given.

Preview:
SMILES	GIV Gai3 FP	Sa growth inh	Sa growth inh second temp	HCMV UL50-53 inh
CN1C(=O)C(c2c(-c3ccc4ccccc4c3)[nH]c3[nH]c(=O)[nH]c(=O)c23)c2ccccc21 (configuration not stated)	132	x	x	-39
Cc1ccc(Oc2ncccc2NS(C)(=O)=O)c2c1CCC2	102	113	90	-15
Cc1cc(/C=C/c2ccc3cc(N(C)C)ccc3[n+]2C)c(C)n1-c1ccccc1	x	14	1	-75
Cc1ccc(NC(=O)c2cnc3ccccn3c2=O)cc1F	103	x	x	3
Cc1csc(-c2ccc(O)cc2)n1	x	97	90	-39
CCOc1ccc(NC(=O)CSc2nc3ccsc3c(=O)n2CCC(C)C)cc1	101	95	78	x
CCN(CC)C(=S)SC(=O)c1ccccc1Cl	x	96	88	-8
Cc1ccc(/C=C/C(=O)O)cc1	x	84	88	-10
COc1ccccc1/C=C\C=c1/sc2nc(-c3ccco3)nn2c1=O	121	102	64	-7
COc1cccc(-n2c(=O)c3c(C)c(C)sc3n(Cc3ccccc3C#N)c2=O)c1	98	95	92	12
CCOC(=O)C1CCN(C(=O)c2c(C)nn(-c3ccc(F)cc3)c2-n2cccc2)CC1	107	106	85	x
Cc1ccc(CN2CCSc3ccc(C(=O)N4CCN(c5ccc(Cl)cc5)CC4)cc32)cc1	103	116	93	-22
Cc1c(OCc2nnc(SCC(=O)Nc3nnc(C4CC4)s3)n2C)ccc2ccccc12	105	93	85	-35
Cc1ccc(C(=O)Nc2ccc3[nH]c(=O)c(=O)[nH]c3c2)cc1	99	101	90	-33
Cc1cc(NC(=O)N2CCC(CN3CCCCCC3)CC2)ccc1Br	108	122	98	x
Cc1ccc2c(CNCC(C)(C)CN(C)C)cc(=O)oc2c1	x	58	90	-28
CCC(CC)c1nnc(NC(=O)CCc2c(C)noc2C)s1	x	112	95	13
O=C(/C=C/c1cn(-c2ccccc2)nc1-c1ccc(F)cc1)NCc1ccco1	x	89	89	-19
O=C(Cn1cnc2onc(-c3ccc(Cl)cc3)c2c1=O)NCCCN1CCCC1	103	81	84	-28
CC1=CC(C)(C)NC(=O)N1c1ccccc1	x	89	88	-3
O=c1c2ccccc2c(-c2ccccc2)nn1-c1ccccc1	x	103	87	-9
Cc1ccc(CNC(=O)CSC2=Nc3ccccc3C3=NC(Cc4ccccc4)C(=O)N23)cc1 (configuration not stated)	101	115	64	x
Cc1nn2c(=O)cc(COC(=O)c3ccccc3NC(=O)C3CCCCC3)nc2s1	101	104	90	x

Main list, from the first entry:
SMILES	GIV Gai3 FP	Sa growth inh	Sa growth inh second temp	HCMV UL50-53 inh
CN1C(=O)C(c2c(-c3ccc4ccccc4c3)[nH]c3[nH]c(=O)[nH]c(=O)c23)c2ccccc21 (configuration not stated)	132	x	x	-39
Cc1ccc(Oc2ncccc2NS(C)(=O)=O)c2c1CCC2	102	113	90	-15
Cc1cc(/C=C/c2ccc3cc(N(C)C)ccc3[n+]2C)c(C)n1-c1ccccc1	x	14	1	-75
Cc1ccc(NC(=O)c2cnc3ccccn3c2=O)cc1F	103	x	x	3
Cc1csc(-c2ccc(O)cc2)n1	x	97	90	-39
CCOc1ccc(NC(=O)CSc2nc3ccsc3c(=O)n2CCC(C)C)cc1	101	95	78	x
CCN(CC)C(=S)SC(=O)c1ccccc1Cl	x	96	88	-8
Cc1ccc(/C=C/C(=O)O)cc1	x	84	88	-10
COc1ccccc1/C=C\C=c1/sc2nc(-c3ccco3)nn2c1=O	121	102	64	-7
COc1cccc(-n2c(=O)c3c(C)c(C)sc3n(Cc3ccccc3C#N)c2=O)c1	98	95	92	12
CCOC(=O)C1CCN(C(=O)c2c(C)nn(-c3ccc(F)cc3)c2-n2cccc2)CC1	107	106	85	x
Cc1ccc(CN2CCSc3ccc(C(=O)N4CCN(c5ccc(Cl)cc5)CC4)cc32)cc1	103	116	93	-22
Cc1c(OCc2nnc(SCC(=O)Nc3nnc(C4CC4)s3)n2C)ccc2ccccc12	105	93	85	-35
Cc1ccc(C(=O)Nc2ccc3[nH]c(=O)c(=O)[nH]c3c2)cc1	99	101	90	-33
Cc1cc(NC(=O)N2CCC(CN3CCCCCC3)CC2)ccc1Br	108	122	98	x
Cc1ccc2c(CNCC(C)(C)CN(C)C)cc(=O)oc2c1	x	58	90	-28
CCC(CC)c1nnc(NC(=O)CCc2c(C)noc2C)s1	x	112	95	13
O=C(/C=C/c1cn(-c2ccccc2)nc1-c1ccc(F)cc1)NCc1ccco1	x	89	89	-19
O=C(Cn1cnc2onc(-c3ccc(Cl)cc3)c2c1=O)NCCCN1CCCC1	103	81	84	-28
CC1=CC(C)(C)NC(=O)N1c1ccccc1	x	89	88	-3
O=c1c2ccccc2c(-c2ccccc2)nn1-c1ccccc1	x	103	87	-9
Cc1ccc(CNC(=O)CSC2=Nc3ccccc3C3=NC(Cc4ccccc4)C(=O)N23)cc1 (configuration not stated)	101	115	64	x
Cc1nn2c(=O)cc(COC(=O)c3ccccc3NC(=O)C3CCCCC3)nc2s1	101	104	90	x
CCN(CC)C(=O)/C=C/c1cccs1	x	107	101	-12
CCOC(=O)C1CCN(C(=O)COC(=O)c2ccc(C)cc2)CC1	x	92	84	-18
O=C(O)c1ccc(Sc2ccccn2)o1	x	137	88	-3
CC1=C(C(=O)NCc2ccc(C)cc2)C2(CCCCC2)OC1=O	102	116	85	x
Cc1ccnc(NC(=O)CCc2nnc3ccc(NCc4ccc(F)cc4)nn23)c1	103	94	89	12
Cc1ccccc1Nc1nnc(SCC(=O)Nc2cc(C(C)C)no2)s1	x	103	91	-2
CCCCn1c(=O)n(C)c(=O)c2ccc(-c3ccc(Cl)cc3)nc21	x	80	89	-22
Cc1nn(C(=O)c2cccc(F)c2)c(C)c1S(=O)(=O)N1CCOCC1	103	92	92	x
Cc1nn(S(=O)(=O)c2ccc(F)cc2)c(C)c1S(=O)(=O)N1CCCCCC1	103	92	89	x
O=C(NCCc1ccc(Cl)cc1)C(=O)NCC(c1ccc2c(c1)OCO2)N1CCOCC1 (configuration not stated)	98	110	99	x
CCCCCNC(=O)c1c[nH]c2ccc(S(=O)(=O)N3CCC(C)CC3)cc2c1=O	102	111	94	x
O=C1CC(c2ccccc2)CC2=C1C(c1cccs1)N(C(=O)C(F)(F)F)c1ccccc1N2 (configuration not stated)	107	x	x	-1
Cc1ccc(NC(=O)CN2C(=O)C(c3ccc(C)cc3)=NC23CCCCCC3)cc1	99	103	92	-9
CCCCC(CC)CNC(=O)CN(C)S(=O)(=O)c1ccc2c(c1)c(=O)n(C)c(=O)n2C (configuration not stated)	103	95	85	2
O=C(Nc1ccccc1)C(=S)NCc1ccco1	108	97	109	-5
COc1ccc(-n2c(=O)c3ccccc3n(Cc3ccccc3C)c2=O)c(OC)c1	100	125	95	11
CCn1c(=O)c(N2CCC(C(=O)NCc3ccc(F)cc3)CC2)nc2cccnc21	105	x	x	-5
COc1ccc(-c2cc(-c3cccc(Br)c3)c(C#N)c(N)n2)cc1	111	x	x	14
CCCC1COC(c2ccc(C#N)cc2)OC1 (configuration not stated)	99	107	130	1
O=C(Nc1ccc2nc(SCC(=O)N3CCCC3)sc2c1)c1ccccc1F	105	108	54	-26
O=C(NCc1ccc(F)cc1)c1c(-c2ccc(F)cc2)nc2n1CCS2(=O)=O	112	x	x	-3
c1cnc2cc(Oc3ccc4nccnc4c3)ccc2n1	97	115	76	x
CCn1c(=N)n(CCCOc2ccc(Br)cc2)c2ccccc21	101	117	56	x
CC1CCC(C(=O)NC(Cc2c[nH]c3ccccc23)C(=O)NCc2ccccn2)CC1 (configuration not stated)	104	x	x	-24
CCOc1ccc(OCC(=O)NCCS(=O)(=O)N2CCN(c3ccccc3F)CC2)cc1	105	96	92	x
COc1ccc(-c2cn3nc(SCC(=O)Nc4cc(C)cc(C)c4)ccc3n2)cc1	107	87	80	x
CCOc1cc2sc(N3CCC(C(=O)N(C)Cc4ccccc4)CC3)nc2cc1Br	102	99	85	x
O=P1(c2ccccc2O)COc2ccccc2OC1	99	90	86	-28
CCC(C)NC(=O)c1cccc(Nc2cc(-c3cccc(C)c3)ncn2)c1 (configuration not stated)	106	x	x	-4
CN(C)Cn1c(O)c(N=NC(=O)CO/N=C/c2ccccc2)c2ccccc21	109	97	91	-10
O=C(CN1CCN(CC(=O)N2CCCC2)CC1)NC(=O)Nc1ccccc1F	x	109	105	-18
O=C(NC1CCN(c2nc(-c3ccccc3)cs2)CC1)c1cccs1	106	120	89	9
COC(=O)C(C)Nc1ccc(C)cc1 (configuration not stated)	113	90	83	-18
COc1ccc(OC)c(-n2c(=O)[nH]c3cc(C(=O)NCCc4ccc(OC)c(OC)c4)ccc3c2=O)c1	104	99	86	-1
COc1ccc(N2C(=O)CSC23C(=O)N(CC(=O)Nc2ccccc2F)c2ccccc23)cc1 (configuration not stated)	109	122	98	x
COc1cccc(Cn2nnc3c(=O)[nH]c(C4CCN(C(=O)c5ccccc5Cl)CC4)nc32)c1	101	0.4*	0.9*	1
O=C(O)CCCC(=O)Nc1ccc(Oc2cccc(C(F)(F)F)c2)nc1	103	113	98	7
Next records
SMILES	GIV Gai3 FP	Sa growth inh	Sa growth inh second temp	HCMV UL50-53 inh
Fc1ccc(Nc2nc3ccccc3o2)c(F)c1	x	90	60	-2
CCOC(=O)c1[nH]c(C)c(S(=O)(=O)Nc2ccc3c(c2)OCO3)c1C	102	x	x	-10
CC1(c2ccc3c(c2)OCO3)NC(=O)N(CC(=O)c2ccc3c(c2)CCC3)C1=O (configuration not stated)	x	107	89	-18
CCn1c(=O)c(CNc2ccc(N3CCC(O)CC3)cc2)cc2cc(OC)ccc21	106	95	86	-24
CCCCN1CCn2c(nc3cc(NS(C)(=O)=O)ccc32)C1	106	x	x	-17
Cc1ccc(CN(Cc2ccco2)c2cnc(S(C)(=O)=O)nc2C(=O)Nc2ccccc2Br)o1	98	83	94	2
O=C1/C(=C/c2ccc(N3CCOCC3)cc2)COc2ccccc21	x	109	89	-20
CC1(C)OCC(C2OC(=O)C3OC(C)(C)OC32)O1 (configuration not stated)	x	93	89	-8
CC(C)NC(=O)COc1ccc2c(c1)C(=O)CC(C)(C)O2	110	99	100	x
CCc1ccc2nc(C(C#N)C3=NS(=O)(=O)c4ccccc43)[nH]c(=O)c2c1 (configuration not stated)	x	147	83	-34
CCOc1cc(-c2cccc(OC)c2)nc2ccc(C(=O)Nc3ccccc3O)cc12	109	x	x	-27
CC1CN(C(=O)N2CCC(C(=O)NCc3cccs3)CC2)c2ccccc2O1 (configuration not stated)	108	112	96	-4

A section from further up, for reference:
SMILES	GIV Gai3 FP	Sa growth inh	Sa growth inh second temp	HCMV UL50-53 inh
CCOc1cc(-c2cccc(OC)c2)nc2ccc(C(=O)Nc3ccccc3O)cc12	109	x	x	-27
CC1CN(C(=O)N2CCC(C(=O)NCc3cccs3)CC2)c2ccccc2O1 (configuration not stated)	108	112	96	-4

Additional entries follow:
SMILES	GIV Gai3 FP	Sa growth inh	Sa growth inh second temp	HCMV UL50-53 inh
N#Cc1c(N)n[nH]c1CCCCCN	x	94	96	1
COc1cc(C2C(C(=O)c3ccco3)=C(O)C(=O)N2CCc2ccccc2)ccc1O (configuration not stated)	97	119	77	-45
Cc1ccc(C)c(C(=O)COC(=O)c2c(-c3ccccc3)noc2C)c1	x	47	81	-21
CC1CCN(CCCNC(=O)Cn2ncc3c(=O)oc4ccccc4c32)CC1	94	x	x	7
CC1=C(C(=O)Nc2ccccc2C)C(c2ccncc2)n2nc(SCc3ccccc3Cl)nc2N1 (configuration not stated)	97	107	88	-80
O=C1c2ccccc2C(=O)N1CC1c2ccccc2CCN1S(=O)(=O)c1cccc2nsnc12 (configuration not stated)	105	x	x	-8
COc1ccc(OCC(=O)N2CCN(C(=O)c3ccc(OC)cc3)CC2)cc1	104	101	95	-17
COc1ccc(S(=O)(=O)Nc2cccc(-c3ccc(N4CCOCC4)nn3)c2)c(OC)c1	101	94	80	-38
O=C(Nc1ccnn1C1CCCC1)c1ccc(F)cc1	106	x	x	-6
CCCCN(CC)CCCNC(=O)CCN1N=C(c2ccc(OC)cc2)CCC1=O	102	114	89	x
COC(=O)CC1C(=O)NCCN1C(=O)CSc1nnnn1-c1ccc(Cl)cc1 (configuration not stated)	x	116	96	2
O=C(Nc1nccs1)C1CCCN(C(=O)c2cnn(-c3ccccc3)c2-n2cccc2)C1 (configuration not stated)	105	105	92	x
Cc1nc(-c2ccc(F)cc2)sc1CCNS(=O)(=O)c1ccccc1	99	x	x	-5
COc1ccc(-c2nc3ccccc3o2)cc1NC(=O)COc1cc(C)cc(C)c1	104	86	76	x
COc1ccccc1N1CCN(C(c2ccccc2)c2nnc(-c3ccc(Cl)cc3)o2)CC1 (configuration not stated)	103	x	x	-28
Cc1ccc(S(=O)(=O)N2CCc3nc(N4CCCCC4)ncc3C2)cc1	113	x	x	-13
